Sa growth inh = inhibitors of Staphylococcus aureus growth at 42 °C; S. aureus RN4220 growth, OD600, 20 h; stronger effect = lower value; relative growth, % (test concentration not listed); hit rate 0.53% among 170,000;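 active means growth at 42 °C up to 50% and 20 or more points under that at 30 °C, or under 10% at both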;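 further: 300 nL library stock went into each well; scaled to the means of positive and negative controls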
HCMV UL50-53 inh = cytomegalovirus nuclear egress complex inhibition; HTRF UL50-UL53 interaction, normalized percent inhibition; inhibition, % (concentration not given with the values); hit rate 0.15% among 190,000; AID 1918969;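 active means both replicates at 50% or more, plus weaker picks with an unusually low signal ratio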;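 further: stock transfer was 100 nL into about 20 µL; 0% = negative control wells and 100% = wells with untagged competitor protein; inactives centre near -12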
GIV-Gai inh = inhibitors of GIV GBA-motif binding to rat Galpha-i3; Galpha-i3/FITC-GIV peptide fluorescence polarization, 90 min; stronger effect = lower value; scaled: aluminum fluoride 0%, vehicle 100%; hit rate 0.42% among 210,000; P08753; percent of control (FP), % (no concentration beside the values);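 active means replicate mean at 85% of control or lower, very high polarization wells dropped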;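 further: wells of about 15 µL received 100 nL stock; the first replicate is given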
Target sequence (P08753 whole entry, looked up): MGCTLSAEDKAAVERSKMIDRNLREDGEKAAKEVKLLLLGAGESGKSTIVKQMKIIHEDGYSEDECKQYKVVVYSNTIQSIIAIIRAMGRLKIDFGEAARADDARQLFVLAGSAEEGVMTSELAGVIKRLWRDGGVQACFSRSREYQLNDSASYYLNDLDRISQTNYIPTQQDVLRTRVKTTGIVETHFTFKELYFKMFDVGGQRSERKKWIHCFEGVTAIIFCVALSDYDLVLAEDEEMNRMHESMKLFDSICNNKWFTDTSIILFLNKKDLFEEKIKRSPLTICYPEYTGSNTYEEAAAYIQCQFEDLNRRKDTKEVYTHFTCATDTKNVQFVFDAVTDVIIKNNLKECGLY
Sa growth inh second temp = also measured in Sa growth inh; calls as there; relative growth, %; measured here: growth at 30 °C;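 optical density after 20 h as mean of two plates; 100% = untreated growth and lower means inhibition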
Numbers without * were called inactive; . = no result given; & = joins results of further samples.

SMILES	Sa growth inh	Sa growth inh second temp	HCMV UL50-53 inh	GIV-Gai inh
Cc1cccc(OCCn2c(C3CCCO3)nc3ccccc32)c1 (centres undefined)	94	81	.	99
CC(=O)OCc1cnc(C)c2oc(=O)c(C(=O)NCc3ccccc3Cl)cc12	.	.	-58	102
COc1ccc(Nc2cc(C(=O)NCCCN3CCOCC3)c3ccccc3n2)c(OC)c1	98	98	-16	95
CCOc1ccc(C(=S)N2CCCC2)cc1	93	105	18	97
O=C(NCCC1=CCCCC1)c1sc2ccccc2c1Cl	97	100	.	98
Clc1ccc(-c2nnc(C3CCC(c4ccccc4)CC3)o2)cc1 (centres undefined)	106	92	.	95
CSc1ccc(S(=O)(=O)NCCN2CCOCC2)cc1	96	98	-15	99
CC1=C(C(=O)OCc2ccccc2)C(c2ccc(O)c([N+](=O)[O-])c2)C2=C(CC(c3ccccc3)CC2=O)N1 (centres undefined)	.	.	-31	103
CCCCCCCCCCC[C@@H](C[C@H]1OC(=O)[C@H]1CCCCCC)OC(=O)[C@@H](CC(C)C)NC=O	80	84	-52	.
Cc1ccc2oc(=O)c(S(=O)(=O)c3ccc(F)cc3)cc2c1	114	92	-20	96
CCc1cc2c(cc1C(=O)CCN1CCOCC1)OCCO2	117	90	-8	.
CC(NC(=O)c1ccc(F)cc1)c1nc2ccccc2[nH]1 (centres undefined)	88	86	-20	105
CCn1c(C(=O)NCc2ccc(Cl)cc2)cc2sccc21	91	95	-28	100
COc1cc(C)c(C(=O)O)c(OC)n1	115	86	-3	106
COc1ccc2ccccc2c1C=Nc1ccc(C)cc1	105	89	-44	.

4 neighbouring entries from above, for reference:
SMILES	Sa growth inh	Sa growth inh second temp	HCMV UL50-53 inh	GIV-Gai inh
CC(NC(=O)c1ccc(F)cc1)c1nc2ccccc2[nH]1 (centres undefined)	88	86	-20	105
CCn1c(C(=O)NCc2ccc(Cl)cc2)cc2sccc21	91	95	-28	100
COc1cc(C)c(C(=O)O)c(OC)n1	115	86	-3	106
COc1ccc2ccccc2c1C=Nc1ccc(C)cc1	105	89	-44	.

Additional structures:
SMILES	Sa growth inh	Sa growth inh second temp	HCMV UL50-53 inh	GIV-Gai inh
Cc1ccc(N(C)S(=O)(=O)c2ccc3c(c2)CCCC(=O)N3)cc1	109	94	-15	104
NC(=O)CS(=O)(=O)c1ccc(Cl)cc1	94	93	-5	104
CC1CC(C(F)(F)F)n2ncc(C(=O)O)c2N1 (centres undefined)	104	86	0	97
OC(c1ccccc1)c1nc2ccccc2n1Cc1c(F)cccc1Cl (centres undefined)	112	90	-2	103
CC1=C(C)C(=O)C(NCc2ccco2)=CC1=O	69	5	-5	.
CNC(=O)CN(c1cccc(F)c1)S(C)(=O)=O	95	98	10	103
CN(c1ccccc1)N1C(=O)c2cccc3cccc(c23)C1=O	93	92	-49	98
COc1ccc(CCn2c(C)cc(C(=O)COC(=O)c3ccco3)c2C)cc1	96	95	-16	.
CCCNC(=O)c1[nH]c2cc(OC)ccc2c1Sc1ccccc1	77	82	.	104
CCCS(=O)(=O)c1c(S(=O)(=O)CCC)c2cc(CC)ccn2c1C(=O)OC	87	70	-48	102
Cc1cccc(C)c1-n1nnnc1SCC(=O)Nc1ccc2c(c1)OCO2	112	108	-3	105
CCOC(=O)c1scc(-c2ccccc2)c1S(=O)(=O)N1CCN(c2ccc(Cl)cc2)CC1	110	89	.	108
COc1ccc(C2C(C#N)=C(N)OC3=C2C(=O)CC(c2ccc(Cl)cc2)C3)cc1 (centres undefined)	.	.	-22	101
CC(C)NC(=O)c1ccc(N(C)S(C)(=O)=O)cc1	94	93	0	.
COc1ccccc1CN1COc2ccc3c(C)cc(=O)oc3c2C1	109	85	.	102
COc1ccc2nc(/N=C(\N)NC(=O)N3c4ccccc4Sc4ccccc43)nc(C)c2c1	105	75	.	100
Cc1nn(-c2cc(N3CCCC3)ncn2)c(C)c1CCC(=O)NCCC(C)C	.	.	-15	99
O=C(CCC(=O)N1CCSc2ccccc21)NCc1ccccc1	98	90	.	109
Cc1ccc2[nH]c3c(=O)n(CCC(=O)NCCc4ccc(S(N)(=O)=O)cc4)cnc3c2c1	.	.	-21	104
O=C(OCC(=O)N1CCCc2ccccc21)c1ccccc1	88	99	-4	.
CNC(=S)Nc1ccccc1	96	88	-20	99
O=C(N/N=C/c1ccco1)C1CC12CCC2 (centres undefined)	108	95	-24	97
O=c1cc(CSc2nc3ccccc3s2)c2ccccc2[nH]1	110	80	-11	.
NC(=O)COc1ccc2c(c1)OCO2	97	92	-24	.
CCOc1ccc2c(c1)sc1nc(=O)n(-c3ccccc3)c(=O)n12	88	90	-23	106
O=S(=O)(c1ccc2nc(Nc3ccc(F)c(Cl)c3)ccc2c1)N1CCOCC1	.	.	-12	99
CCCc1cc(=O)[nH]c(-n2nc(C)cc2NC(=O)c2cc(C)cc(C)c2)n1	.	.	11	99
O=C(NCc1ccccc1)c1cc(I)ccc1O	88	58	1	.
CNC(=O)C1CCN(c2ccc(F)cc2)C1=O (centres undefined)	.	.	-20	98
O=C(c1ccc(Cl)c(S(=O)(=O)N2CCCC2)c1)N1CCc2ccccc21	126	77	-6	.

Only Sa growth inh and GIV-Gai inh, for 2 of the compounds above:
| SMILES | Sa growth inh | GIV-Gai inh |
| --- | --- | --- |
| CNC(=O)C1CCN(c2ccc(F)cc2)C1=O (centres undefined) | . | 98 |
| O=C(c1ccc(Cl)c(S(=O)(=O)N2CCCC2)c1)N1CCc2ccccc21 | 126 | . |

Continuation.
SMILES	Sa growth inh	Sa growth inh second temp	HCMV UL50-53 inh	GIV-Gai inh
Cc1cccn2c(=O)c3cc(C(=O)NCC(C)C)sc3nc12	79	93	-35	103
CC(=O)c1ccc(N2CCN(c3ccc4cc(S(=O)(=O)N5CCC(C)CC5)ccc4n3)CC2)cc1	87	91	.	108
CCCCCN1C(=O)CC(C)Nc2ccccc21 (centres undefined)	.	.	19	107
O=C(Cn1c(=O)n(-c2ccccc2)c(=O)c2c3c(sc21)CCC3)c1ccc(Br)cc1	98	85	3	106
C=CCC(C)(NCc1ccccc1)c1cccs1 (centres undefined)	120	83	-8	96
CN1CCN(C(=O)c2c[nH]c3ccc(F)cc3c2=O)CC1	.	.	-6	101
CCN1C(=O)/C(=C/c2c(NC(C)C)nc3ccccn3c2=O)SC1=S	96	93	-13	293
Oc1cc(O)c2c(c1)OC(c1ccc(O)c(O)c1)C(O)C2 (centres undefined)	87	72	-36&-22	111
Cc1ccc(-c2noc(-c3ccc(N4CCCC4)c([N+](=O)[O-])c3)n2)cc1	106	101	14	109
COc1ccccc1N1C(=O)C2C(C1=O)C1(C)C=CC2(C)O1 (centres undefined)	.	.	-6	107
CSc1ccc(CNCCSc2nnnn2C)cc1	.	.	-10	101
NC(=O)N(CCC(=O)O)c1ccccc1	134	103	-20	101
O=S(=O)(c1ccc(-c2cc(C(F)(F)F)on2)s1)N1CCc2c([nH]c3ccc(F)cc23)C1	112	94	-36	107
COc1cc2c(cc1OC)C(COc1ccccc1OC)N(C(=O)CC(C)C)CC2 (centres undefined)	94	91	.	103
COc1ccc(SCc2csc(NC(C)=O)n2)cc1	109	98	-11	.
O=C(Cn1ncn2nc(-c3cccs3)cc2c1=O)NCc1ccccc1Cl	88	89	-10	99
CCOC(=O)c1ccc(S(=O)(=O)Nn2cc(-c3ccccc3)[nH]c2=S)cc1	101	87	2	.
CCN(CCCNC(=O)c1nn(-c2ccc(OC)cc2)c(=O)c2c1c1ccccc1n2C)c1ccccc1	103	85	-20	103
CC1CCN(CC(=O)Nc2ccccc2C(F)(F)F)CC1	96	100	1	111
O=C(Nc1ccc(-c2nnc3n2CCCCC3)cc1)c1ccccc1	98	96	3	.
COc1cc(C(=O)N2c3ccccc3C(Nc3ccccc3)CC2C)cc(OC)c1OC (centres undefined)	.	.	-10	102
CCOc1ccc(N(Cc2nc3nc(C)cc(=O)n3[nH]2)C(=O)COC)cc1	.	.	-17	103
CCOc1ccc(NC(=O)c2ccc3nc(Cc4ccccc4)oc3c2)cc1	75	90	.	102
NS(=O)(=O)c1ccc(-n2nc(C(F)(F)F)cc2-c2ccc(Cl)cc2)cc1	.	.	14	105
O=C(NCCc1nc2cccnc2n1-c1ccccc1)Nc1ccccc1F	.	.	-15	108
O=C(NCCc1c[nH]c2ccccc12)c1cc(=O)nc2sc(N3CCCC3)nn12	.	.	-1	106
O=C(OCc1cc(=O)oc2cc3c(cc12)CCC3)c1ccc(Br)o1	85	88	-27	.
CCn1c(=O)c(C)nc2cc(C(=O)NCCc3c[nH]c4ccc(C)cc34)ccc21	.	.	-40	104
COCCOc1ccc(C(F)(F)F)cc1Nc1nc2ccccc2o1	75	93	-19	.
COc1ccc(-n2ncc(C(=O)Nc3cccc(C(F)(F)F)c3)c2C2CCN(C(=O)OC(C)(C)C)CC2)cc1	98	87	.	107

Compound profiles (already shown). Order of screens: Sa growth inh, Sa growth inh second temp, HCMV UL50-53 inh, GIV-Gai inh
OC(c1ccccc1)c1nc2ccccc2n1Cc1c(F)cccc1Cl (centres undefined) in the list: 112, 90, -2, 103
COc1ccc(C2C(C#N)=C(N)OC3=C2C(=O)CC(c2ccc(Cl)cc2)C3)cc1 (centres undefined) in the list: ., ., -22, 101
CCn1c(=O)c(C)nc2cc(C(=O)NCCc3c[nH]c4ccc(C)cc34)ccc21 in the list: ., ., -40, 104
O=c1cc(CSc2nc3ccccc3s2)c2ccccc2[nH]1 in the list: 110, 80, -11, .
Clc1ccc(-c2nnc(C3CCC(c4ccccc4)CC3)o2)cc1 (centres undefined) in the list: 106, 92, ., 95

Reformatted with each value named: part of the list above.
COc1ccccc1N1C(=O)C2C(C1=O)C1(C)C=CC2(C)O1 (centres undefined)
  Sa growth inh = .
  Sa growth inh second temp = .
  HCMV UL50-53 inh = -6
  GIV-Gai inh = 107
CSc1ccc(CNCCSc2nnnn2C)cc1
  Sa growth inh = .
  Sa growth inh second temp = .
  HCMV UL50-53 inh = -10
  GIV-Gai inh = 101
NC(=O)N(CCC(=O)O)c1ccccc1
  Sa growth inh = 134
  Sa growth inh second temp = 103
  HCMV UL50-53 inh = -20
  GIV-Gai inh = 101

Going on with the list:
SMILES	Sa growth inh	Sa growth inh second temp	HCMV UL50-53 inh	GIV-Gai inh
CCNC(=O)C1CCN(c2nn3cc(-c4ccc(F)cc4)nc3s2)CC1	86	82	.	100
COc1ccc(Nc2ncc(C(=O)Nc3cc(C)ccc3OC)c3ccccc23)cc1	117	89	-7	98
CCN(CC)C(=O)c1nc(-c2ccc(Cl)cc2)n2c1CCCCC2	107	95	-15	102
COCCCNC(=O)CSc1nc2cc3c(cc2c(=O)n1CCCC(=O)NCc1ccc2c(c1)OCO2)OCO3	86	84	.	100
CCOC(=O)N1CCN(C(=O)COc2cccc3c2CCN(CC)C3=O)CC1	89	86	-18	98
C=CCn1c(CNC(=O)c2ccccc2)nc2ccccc21	101	89	-2	.
COc1ccc(-c2noc(CNC(=O)Nc3cccc(C)c3)n2)cc1	90	93	.	99
CCc1cccc(CC)c1NC(=O)Cn1c(C(=O)OC(C)C)cc2c1ccn2C	122	88	4	103
Cc1ccc2nc(CC(=O)O)[nH]c2c1	103	74	-10	101
Cc1ccc(-c2nn(C)c(=O)c3ccccc23)cc1S(=O)(=O)N1CCC(Cc2ccccc2)CC1	.	.	-25	102
N#CC1=C2SCN(c3ccccc3)CN2C(=O)CC1c1ccccc1 (centres undefined)	58	55	-24	104
CNC(=O)c1ccccc1Nc1ccc(SC(F)F)cc1	73	57	-5	95
Cc1cccc(Cn2c(C)c(CNCC3CCCO3)c(C(=O)O)c2C)c1 (centres undefined)	.	.	-30	101
CC(=O)Nc1ccc(S(=O)(=O)NCc2ccc3c(c2)N(C(=O)c2ccccc2)CC3)cc1	.	.	21	103

Screens (PubChem BioAssay)
